VDR inh: inhibitors of human vitamin D receptor | VDR-SRC2-3 peptide fluorescence polarization, 2 h | 400,000 tested, 0.93% active | AID 504847 | P11473 | Potency, µM, for the others: max response, negative = inhibition, usual class: inhibitors; active means well fitted inhibition curve with a large enough effect; inconclusive means small, poorly fitted or top-dose-only effect, or another doubt; inactive means no such curve, though single readings can be large or run the other way; further: series mostly up to about 120 µM
Target sequence (P11473 whole entry, looked up): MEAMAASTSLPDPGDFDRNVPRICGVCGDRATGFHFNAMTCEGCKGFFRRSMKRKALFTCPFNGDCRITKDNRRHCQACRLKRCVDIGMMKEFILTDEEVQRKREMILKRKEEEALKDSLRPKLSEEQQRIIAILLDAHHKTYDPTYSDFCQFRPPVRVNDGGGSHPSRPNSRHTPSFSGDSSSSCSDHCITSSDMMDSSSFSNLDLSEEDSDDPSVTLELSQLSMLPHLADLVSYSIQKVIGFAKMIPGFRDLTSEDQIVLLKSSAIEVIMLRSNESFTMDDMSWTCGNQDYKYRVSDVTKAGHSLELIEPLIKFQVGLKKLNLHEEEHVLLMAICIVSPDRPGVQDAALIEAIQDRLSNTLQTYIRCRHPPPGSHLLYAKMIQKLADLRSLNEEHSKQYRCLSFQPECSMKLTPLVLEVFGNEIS
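Two reagent solutions held at 4 deg C in the dark were dispensed, compounds pinned at 23 nl, and the mixture incubated 2 h at room temperature. Read-out: fluorescence polarization of VDR–SRC2-3 peptide binding.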
The depositor's hits bear a star; ? = inconclusive; & = joins results of further samples. On the % scale 0 is the no-effect control and ±100 the full control effect; potency means the concentration at half of the fitted maximal effect.

CCN(CC(=O)Nc1cccc(OC)c1)CC(=O)Nc1ccc(Br)c(C)c1
  VDR inh: 0.9%
Cc1ccc(C)c(NC(=O)CCn2cnnn2)c1
  VDR inh: -14.7%&-2.5%
Cn1c2c(c(=O)n(C)c1=O)C(c1ccc(Br)cc1)Nc1ccccc1O2 (stereo not drawn)
  VDR inh: 6.1%
O=C(NNC(=O)c1cccs1)c1cccnc1
  VDR inh: 0.1%
C[C@@H]1CN([C@@H](C)CO)C(=O)c2cc(NS(C)(=O)=O)ccc2O[C@H]1CN(C)Cc1ccc(Oc2ccccc2)cc1
  VDR inh: 18.2%
COc1ccc(C2CCCN2C(=S)Nc2ccc(C)cc2C)cc1OC (stereo not drawn)
  VDR inh: -7.6%
Cc1cccc(-n2cc(-c3ccccc3)c3c(NC4CCCC4)ncnc32)c1
  VDR inh: 17.4%
CCOC(=O)c1cc2c(C)[nH]c(C)c2cc(C(=O)OCC)c1=O
  VDR inh: 17.8%
Cc1nn(Cc2ccccc2Cl)c2sc(C(=O)NCc3ccc4c(c3)OCO4)cc12
  VDR inh: 9.4%
Cc1cc(C)cc(N(C(=O)CNC(=O)c2ccco2)C(C(=O)NC2CCCCC2)c2cccnc2)c1 (stereo not drawn)
  VDR inh: -16.0%
CC(C)c1ccc(S(=O)(=O)N2CCN(C(=O)c3ccc(N4CCCC4)c([N+](=O)[O-])c3)CC2)cc1
  VDR inh: 0.6%
COc1ccccc1-c1coc2c(CN3CCN(CCO)CC3)c(O)ccc2c1=O
  VDR inh: 4.4%
CC(C)C1N(C(=O)N2CCOCC2)CCN1S(=O)(=O)c1ccccc1 (stereo not drawn)
  VDR inh: -6.2%
O=C(Nc1ccc(Oc2ccsc2C(=O)O)cc1)c1ccccc1
  VDR inh: -4.9%
CCOC(=O)c1c(NC(=O)CN2CCN(C)CC2)sc(C(=O)Nc2ccccc2)c1C
  VDR inh: -2.0%

Cc1cc(CNC(=O)c2cccc3c2C(=O)c2ccc(-c4ccc(F)cc4OCc4ccccc4)cc2S3(=O)=O)c(C(F)(F)F)o1
  VDR inh: -29.3%
Cc1onc(-c2ccccc2)c1C(=O)NCc1ccccc1F
  VDR inh: -9.4%
COc1ccc(NC(=O)COC(=O)c2ccc(S(=O)(=O)N(C)c3ccccc3OC)cc2)cc1
  VDR inh: 4.8%
COc1ccc(CCN=C2SCC(=O)N2Cc2ccccc2)cc1OC
  VDR inh: 3.2%
CCOc1ccc(NC(=O)Cn2cc(S(=O)(=O)c3ccc(C)cc3)c(=O)c3cc(F)ccc32)cc1
  VDR inh: -7.1%
CCCC[n+]1ccn(-c2nc3ccccc3nc2[N-]S(=O)(=O)c2ccc(C)cc2)c1
  VDR inh: 8.5%
CCOC(=O)/C(C#N)=C/c1ccc(OC(=O)c2ccco2)c(OCC)c1
  VDR inh: -4.0%
CC1CCc2c(sc(NC(=O)c3cccn3C)c2C(N)=O)C1 (stereo not drawn)
  VDR inh: -9.9%
COc1cc2c(cc1NC(=O)C(F)(F)F)-c1ccc(NC(=O)C(F)(F)F)cc1C2
  VDR inh: -20.6%
Cc1ccc(NC(=O)CSc2ccc(-c3ccccn3)nn2)cc1
  VDR inh: 1.4%
C=CCN1C(c2ccccc2)=CS/C1=C(\C#N)c1nnc2n1CCCCC2
  VDR inh: 2.1%
CC1(C)C(=O)C2C[C@]3(O)C4=CC(=O)OC(c5ccoc5)[C@]4(C)CCC3[C@](C)(C2=O)C1CC(=O)O (stereo partly drawn)
  VDR inh: 12.9%
CC(C)(C)c1ccc(C(=O)NCC(=O)N2CCNC(=O)C2)cc1
  VDR inh: 2.3%
Cc1ccccc1NC(=O)c1cc(N)ccc1N1CCCCC1
  VDR inh: -2.1%
Cn1c(=O)cc(SCC(=O)N2CCCC2)c2cc(Cl)ccc21
  VDR inh: 7.8%

Exported with bars between the fields: entries from further up.
SMILES | VDR inh
COc1cc2c(cc1NC(=O)C(F)(F)F)-c1ccc(NC(=O)C(F)(F)F)cc1C2 | -20.6%
O=C(Nc1ccc(Oc2ccsc2C(=O)O)cc1)c1ccccc1 | -4.9%
COc1ccc(CCN=C2SCC(=O)N2Cc2ccccc2)cc1OC | 3.2%
CCCC[n+]1ccn(-c2nc3ccccc3nc2[N-]S(=O)(=O)c2ccc(C)cc2)c1 | 8.5%
Cc1onc(-c2ccccc2)c1C(=O)NCc1ccccc1F | -9.4%
COc1ccccc1-c1coc2c(CN3CCN(CCO)CC3)c(O)ccc2c1=O | 4.4%

Other entries follow.
CC(C)C(NC(=O)OCc1ccccc1)C(=O)OCC(=O)N1C(C)CCCC1C (stereo not drawn)
  VDR inh: -1.5%
COc1cccc(-c2cc(=O)c3ccccc3o2)c1N
  VDR inh: 3.5%
Cn1c(=O)c(C(=O)NC2CCCCCC2)c(O)c2ccccc21
  VDR inh: -7.0%
Cc1ccc([N+](=O)[O-])cc1N=C(c1ccc([N+](=O)[O-])cc1)N1CCOCC1
  VDR inh: -29.6%
CC(C)(C)NC[C@@H](O)c1ccc(O)c(CO)n1
  VDR inh: 2.1%
Cc1nn(C(=O)c2ccccc2)c(C)c1S(=O)(=O)N1CCCCCC1
  VDR inh: -1.8%
COc1cc(CN2CCNC(=O)C2CC(=O)NCCCN2CCOCC2)cc(OC)c1 (stereo not drawn)
  VDR inh: -4.7%
CCCc1nc2ccccc2n1C(=S)SC
  VDR inh: 1.1%
CSCC[C@H](NC(=O)[C@H](CC(C)C)NC(=O)CCNC(=O)[C@@H](NC(=O)[C@H](Cc1ccccc1)NC(=O)[C@H](CO)NC(=O)[C@@H](N)CC(=O)O)C(C)C)C(N)=O
  VDR inh: -1.1%
CC(=O)c1cc(C(=O)Nc2cccc(C)c2)c2ccccn12
  VDR inh: 5.5%
Cc1ccc(CNS(=O)(=O)c2ccc(C(F)(F)F)cc2)n1C
  VDR inh: -23.8%
COc1ccc(CCNC(=O)C2CC(=O)N(C3CCCC3)C2)cc1OC (stereo not drawn)
  VDR inh: 3.4%
CCn1c(CNC(=O)c2cccs2)n[nH]c1=S
  VDR inh: -20.7%
O=C(/C=C\c1ccc2c(c1)OCO2)NC1CC(=O)N(c2cccc(F)c2)C1 (stereo not drawn)
  VDR inh: 16.8%
Oc1ccccc1C1C=C(c2ccc3c(c2)OCO3)NC(c2cccc(Cl)c2)N1 (stereo not drawn)
  VDR inh: -11.7%

CC1CCC(C(C)C)C(OC(=O)COC(=O)c2cccn2C)C1 (stereo not drawn)
  VDR inh: -1.6%
COc1ccc(NC(=O)COC(=O)Cc2ccccc2[N+](=O)[O-])cc1OC
  VDR inh: -23.5%
CCOc1cccc(C(=O)N(Cc2cccc(F)c2)C2CCS(=O)(=O)C2)c1 (stereo not drawn)
  VDR inh: -10.9%
O=[N+]([O-])c1ccc(Oc2cnc3ccccc3n2)cc1
  VDR inh: -9.8%
COc1cccc(CNS(=O)(=O)c2ccc3c(c2)CC(C)N3C(=O)C2CCC2)c1 (stereo not drawn)
  VDR inh: 9.3%&5.1%
FC(F)(F)c1cc(-c2ccc(Cl)cc2)nc2ncnn12
  VDR inh: 18.8%
CCC(C)N(C)C1CCN(C(=S)Nc2ccc(OC)cc2)CC1 (stereo not drawn)
  VDR inh: 1.2%
Cc1cccc(C(=O)NCC(=O)N(C)CC(=O)Nc2ccc(N3CCOCC3)cc2)c1
  VDR inh: -4.3%
CCOC(=O)N1CCN(C(=O)COc2ccc(S(=O)(=O)NC(C)C)cc2)CC1
  VDR inh: 2.8%
Cc1nc(C2CC(=O)OC23CCCCC3)cs1 (stereo not drawn)
  VDR inh: 9.6%
CCOc1ccc(CCNC(=O)CN2C(=O)NC3(CCCC3)C2=O)cc1OCC
  VDR inh: -14.8%
CCc1ccccc1Nc1nn2c(=O)c3ccc(C(=O)NC4CCC(C)CC4)cc3nc2s1 (stereo not drawn)
  VDR inh: 14.6%
COc1ccc(S(=O)(=O)N2CCC(C(=O)NCCCN3CCOCC3)CC2)cc1
  VDR inh: -10.0%
CCn1c(O)c(C=Nc2ccccc2)sc1=O
  VDR inh: -5.2%
O=C(NCCSc1c(-c2ccccc2)[nH]c2ccccc12)c1ccc(S(=O)(=O)N2CCOCC2)cc1
  VDR inh: -4.4%

O=C(COC(=O)Cc1ccc(Cl)cc1)Nc1ccc2[nH]c(=O)[nH]c2c1
  VDR inh: -3.1%
COc1ccc(CC(=O)c2ccccc2C(=O)O)cc1
  VDR inh: 13.1%
COc1ccc(-c2ncncc2-c2ccccc2)c(O)c1
  VDR inh: 4.1%
COc1ccccc1CSc1ncc(-c2ccc([N+](=O)[O-])cc2)[nH]1
  VDR inh: 1.5%
CCc1ccc(C2C(C#N)=C(N)N(N3CCOCC3)C3=C2C(=O)CC(C)(C)C3)s1 (stereo not drawn)
  VDR inh: -23.5%
Cn1cc(Cl)c(C(=O)N2CCN(c3ncccn3)CC2)n1
  VDR inh: -1.8%
Nc1nc(N)c(Br)c(Nc2ccc(Cl)c(Cl)c2)n1
  VDR inh: -6.6%
O=C(CSc1ccccc1[N+](=O)[O-])NC1CCS(=O)(=O)C1 (stereo not drawn)
  VDR inh: -9.0%
O=S(=O)(c1ccc(F)cc1)n1ccc(-c2cccc(OCc3c(F)cccc3Cl)c2)n1
  VDR inh: 6.8%
COc1cc(C(=O)OCC(=O)NCCCc2ccccc2)ccc1OCC(C)C
  VDR inh: ?
CC1(C)C(C=C(Cl)Cl)C1C(=O)N/N=C/c1ccccc1F (stereo not drawn)
  VDR inh: -1.6%
Cc1csc(N/N=C/c2ccc(O)c([N+](=O)[O-])c2)n1
  VDR inh: -14.9%
Clc1ccc(-c2cc(-c3ccccn3)on2)c(Cl)c1
  VDR inh: -8.6%
COc1ccccc1C(=O)N(Cc1ccco1)Cc1ccccc1F
  VDR inh: 0.6%
O=C(N/N=C/c1c[nH]c2ccccc12)c1sc2ccccc2c1Cl
  VDR inh: 4.0%

Entries listed so far that have a furan ring, fused or not, in the order listed:
Cc1cc(C)cc(N(C(=O)CNC(=O)c2ccco2)C(C(=O)NC2CCCCC2)c2cccnc2)c1 (stereo not drawn)
  VDR inh: -16.0%
Cc1cc(CNC(=O)c2cccc3c2C(=O)c2ccc(-c4ccc(F)cc4OCc4ccccc4)cc2S3(=O)=O)c(C(F)(F)F)o1
  VDR inh: -29.3%
CCOC(=O)/C(C#N)=C/c1ccc(OC(=O)c2ccco2)c(OCC)c1
  VDR inh: -4.0%
CC1(C)C(=O)C2C[C@]3(O)C4=CC(=O)OC(c5ccoc5)[C@]4(C)CCC3[C@](C)(C2=O)C1CC(=O)O (stereo partly drawn)
  VDR inh: 12.9%
COc1ccccc1C(=O)N(Cc1ccco1)Cc1ccccc1F
  VDR inh: 0.6%

The list goes on.
CC1=C(C(N)=O)C(c2cccnc2)n2nc(-c3cccc(Cl)c3)nc2N1 (stereo not drawn)
  VDR inh: 11.4%
COc1ccc(NC(=O)C2CCCN(c3cc(C)nc4ncnn34)C2)cc1 (stereo not drawn)
  VDR inh: -15.9%
CS/C(=N\S(=O)(=O)c1cccs1)Nc1cccc(Cl)c1C
  VDR inh: -5.7%
COc1ccccc1N1CCN(C(=O)c2cnc(N3CCOCC3)c3ccccc23)CC1
  VDR inh: -7.5%
CC(C)CC(OC(=O)c1cccs1)C(=O)NCC1CCCO1 (stereo not drawn)
  VDR inh: 6.4%
CCOC(=O)c1cccc(NC(=O)c2cc(C)nn2-c2ccccc2)c1
  VDR inh: 5.0%
CCOc1ccc(S(=O)(=O)N2CCCC(C(=O)NCc3ccncc3)C2)cc1 (stereo not drawn)
  VDR inh: 6.0%
CC1(C)CC(=O)C2=C(C1)N(C1CCCCC1)C(=O)C2(O)C(F)(F)F (stereo not drawn)
  VDR inh: 0.7%
Cc1ccccc1CNC(=O)c1ccccc1N
  VDR inh: 11.5%
COc1ccc(S(=O)(=O)N2CCN(C(=O)Cc3ccsc3)CC2)cc1
  VDR inh: 1.1%
Cc1ccc(NC(=O)C2CCN(C(=O)NC3CCCCC3)CC2)cc1
  VDR inh: -1.3%
CC(=O)NCc1ccc(S(=O)(=O)N2CCCN(C)CC2)cc1
  VDR inh: ?
C/C(=C\c1cc(C(=O)O)c(C)o1)CO
  VDR inh: 15.9%
COc1ccc(S(=O)(=O)N2CCC3(CC2)OCCN3S(=O)(=O)c2ccc(OC)cc2)cc1
  VDR inh: -14.7%
O=C(NCCCN1CCOCC1)c1ccc(CS(=O)(=O)Cc2ccc(Cl)cc2)o1
  VDR inh: -14.8%

O=C(/C=C/c1ccco1)NCc1ccco1
  VDR inh: 7.8%
Cc1cc(C)cc(NC(=S)Nc2ccc(Cl)c(Cl)c2)c1
  VDR inh: -8.3%
CCCCNC(=O)Cc1c(O)c2ccccc2[nH]c1=O
  VDR inh: 3.7%
CSc1nc(C)nc(C2CC2)c1C#N
  VDR inh: 0.0%

An excerpt from above in order of their number in VDR inh, highest first:
Molecule	VDR inh
Cc1cccc(-n2cc(-c3ccccc3)c3c(NC4CCCC4)ncnc32)c1	17.4%
COc1ccc(CCNC(=O)C2CC(=O)N(C3CCCC3)C2)cc1OC (stereo not drawn)	3.4%
CSc1nc(C)nc(C2CC2)c1C#N	0.0%
O=C(NCCSc1c(-c2ccccc2)[nH]c2ccccc12)c1ccc(S(=O)(=O)N2CCOCC2)cc1	-4.4%
COc1cc(CN2CCNC(=O)C2CC(=O)NCCCN2CCOCC2)cc(OC)c1 (stereo not drawn)	-4.7%
O=C(NCCCN1CCOCC1)c1ccc(CS(=O)(=O)Cc2ccc(Cl)cc2)o1	-14.8%

High-throughput results from PubChem BioAssay.

Some of the compounds tested. The share of hits here may be higher or lower than overall.
